Screening data deposited in PubChem BioAssay by National Center for Advancing Translational Sciences (NCATS).
TRPML1 inh – blocks the human TRPML1 channel | Q9GZU1 | TRPML1-inducible cells, Ca2+ dye fluorescence, FDSS; stronger effect = lower value; inhibition of EC80 agonist-evoked calcium signal | activity change, negative = inhibition, % (test concentration not listed) | actives 0.02% (n = 390,000); in the data active means activity change below about -50%; inconclusive means about -30% to -50%; inactive means above about -30%;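 further: stimulus is agonist 54-4 at its EC80 concentration; on the % scale 0 is the no-effect control and ±100 the full control effect; compound concentration not given in the record; the text of the record puts the active cut at -80%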
Target sequence (Q9GZU1 whole entry, looked up): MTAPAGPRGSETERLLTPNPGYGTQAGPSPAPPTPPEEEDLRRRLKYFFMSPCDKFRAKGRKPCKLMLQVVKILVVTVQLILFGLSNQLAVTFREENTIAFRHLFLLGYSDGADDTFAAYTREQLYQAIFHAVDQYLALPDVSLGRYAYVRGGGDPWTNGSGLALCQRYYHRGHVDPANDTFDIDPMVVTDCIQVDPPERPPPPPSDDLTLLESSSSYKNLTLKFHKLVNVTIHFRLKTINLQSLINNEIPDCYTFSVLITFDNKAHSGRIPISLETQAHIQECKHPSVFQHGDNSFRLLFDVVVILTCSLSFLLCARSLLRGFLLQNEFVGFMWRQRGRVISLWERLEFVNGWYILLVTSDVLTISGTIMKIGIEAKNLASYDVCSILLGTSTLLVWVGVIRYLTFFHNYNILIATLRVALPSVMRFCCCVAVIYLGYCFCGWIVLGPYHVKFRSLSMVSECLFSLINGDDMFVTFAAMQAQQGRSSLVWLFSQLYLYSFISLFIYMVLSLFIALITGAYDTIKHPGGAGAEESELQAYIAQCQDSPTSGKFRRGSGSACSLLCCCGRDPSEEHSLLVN
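Tet-induced TRPML1-DL cells loaded with Ca8 no-wash calcium dye were read kinetically on FDSS. Compound addition was followed by EC80 agonist 54-4 (4 uM final); inhibition was read over 110 s.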
Sfp PPTase inh – inhibitors of Bacillus subtilis Sfp phosphopantetheinyl transferase; Q9F4F7; Biochemical Sfp PPTase activity, qHTS; Potency, µM, inactives show max response, negative = inhibition, most hits filed as inhibitors; actives 3.5% (n = 310,000); active means well fitted inhibition curve with a large enough effect; inconclusive means small, poorly fitted or top-dose-only effect, or another doubt; inactive means no such curve, though single readings can be large or run the other way;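 further: the enzyme is Sfp with the accession as filed and its product quenches rhodamine fluorescence; potency means the concentration at half of the fitted maximal effect; 0% = enzyme reaction without inhibitor and -100% = no enzyme wells; top concentration of the series not given in the record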
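Reaction rates are the 30-min fluorescence difference (ex 525, em 598 nm) in wells containing 15 nM Sfp, 5 uM rhodamine-CoA and 12.5 uM BHQ-2-YbbR at pH 7.6 with 10 mM MgCl2.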
ClpP mod – qHTS Assay for Activators of ClpP. actives 1.9% (n = 340,000). Potency, µM (top dose mostly 57.5 µM), for the others: top-dose activity change, negative = active. purified B. subtilis ClpP, FRET peptide cleavage, 20 min. ATP-dependent Clp protease proteolytic subunit (Bacillus subtilis (strain 168)), P80244; active = well fitted falling curve with a large enough effect; inconclusive = small, poorly fitted or top-dose-only effect; inactive = no such curve, though single readings can be large or run the other way; further: potency means the concentration at half of the fitted maximal effect; the source files actives as falling curves though it sought activators and does not explain the sign; nearly all actives have a fitted effect of over 65% in size; many hits overshoot -100%
Target sequence (P80244 whole entry, looked up): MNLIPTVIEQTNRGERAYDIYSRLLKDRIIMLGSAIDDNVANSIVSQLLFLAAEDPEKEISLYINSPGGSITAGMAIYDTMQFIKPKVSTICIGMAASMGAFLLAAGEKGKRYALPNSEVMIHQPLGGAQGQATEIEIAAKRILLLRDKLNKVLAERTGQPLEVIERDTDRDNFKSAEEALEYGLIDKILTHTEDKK
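FRET quenching reversal measured ClpP activation: 10 microg/mL B. subtilis ClpP at pH 8 with the FRET-FV decapeptide, read at 430 nm after 320 nm excitation. The 20-min minus 0-min signal was scaled between DMSO/no-enzyme wells and ADEP (5.8 microM final).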
gsp antag – antagonizes gsp, the McCune-Albright syndrome mutation; gsp-mutant cells, cAMP HTRF, 30 min; control for the full effect not named in the record; Potency, µM (doses to about 76.9 µM), without a hit: at the top dose activity change, negative = inhibition, usual class: inhibitors; actives 0.4% (n = 340,000); AID 624288; active = falling curve of any shape with a large fitted effect; inconclusive = falling curve, mostly with a smaller effect; inactive = flat or rising curve; cell line not stated here;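 further: intracellular cAMP measured with PDE inhibitor Ro 20-1724 present during compound exposure; potency means the concentration at half of the fitted maximal effect; on the % scale 0 is the no-effect control and ±100 the full control effect; nearly all actives have a fitted effect of over 65% in size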
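Cells, 2000/well, grown 16–24 h in DMEM 10% FBS with 0.5 mg/ml G418, then compounds plus […] (300 uM addition stock), 30 min at 37C. cAMP read by HTRF (cAMP-d2 and anti-cAMP antibody-K in lysis buffer) after 30 min RT.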
gsp ag – gsp mutant agonism; gsp mutant cells, cAMP HTRF, 30 min; control for the full effect not named in the record; Potency, µM (top dose mostly 76.9 µM), for the others: top-dose activation (cAMP increase), actives largely listed as activators; actives 0.13% (n = 340,000); active = well fitted activation curve with a large enough effect; inconclusive = small, poorly fitted or top-dose-only effect, or another doubt; inactive = no such curve, though single readings can be large or run the other way; cell line not stated here;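 further: phosphodiesterase inhibitor Ro 20-1724 added with compounds to block cAMP breakdown; potency means the concentration at half of the fitted maximal effect; nearly all actives have a fitted effect of over 60% in size; about a fifth of the inactives were tested at one dose only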
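Cells stably selected in G418 were plated at 2000/well, grown 16-24 hr, then given compounds in DMSO with the PDE inhibitor […] (300 uM solution added) for 30 min at 37C; cAMP was read by HTRF.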
TRPV1 potentiator – potentiators of human vanilloid receptor 1 (TRPV1); TRPV1-expressing cells, Fluo-8 calcium influx, capsaicin EC20 potentiation; host cell line not named in the record; control for the full effect not named in the record; potentiation, % at 8.33 µM; Q8NER1; AID 540277; actives 0.02% (n = 320,000); active means potentiation above 80%; inconclusive means 30% to 80%; inactive means below 30%; further: 0% is about no effect
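TRPV1-expressing cells were cultured overnight at 35.5C and loaded with Fluo-8 calcium dye for 40 to 90 min at room temperature. After a 10 s baseline, compound was added and calcium influx was read kinetically for 3 min (ex 480/em 520 nm).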
Menin-MLL FL inh – menin-MLL binding inhibition, fluorescein peptide; AID 1766; 290,000 tested, under 10 active; FP activity change, % at 61.4 µM; Fluorescence polarization, fluorescein-MLL peptide displacement from menin; inconclusive = falling polarisation curve, or a change in total fluorescence; inactive = total fluorescence flat and polarisation flat or rising; no compound was filed as active; the % refers to the polarisation; negative = inhibition;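 further: % of control where 0% means no effect; inhibitors lower the polarisation; unlabelled MLL peptide was the positive control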
Numbers without * were called inactive; ? = inconclusive; . = no result given; & = joins results of further samples; [ ] = another dose, or the depositor's remark.

Start of the data: the first 2 records, to show the layout:
The line under a structure holds: TRPML1 inh | Sfp PPTase inh | ClpP mod | gsp antag | gsp ag | TRPV1 potentiator | Menin-MLL FL inh
1	CCCS(=O)(=O)N1CCN(C(=O)c2ccc(-c3ccccc3)cc2)CC1
 : 5 | 8% | -0.8% | -17% | -1% | -22 | 3.4
2	O=C(O)c1cccc(-n2cccc2/C=C\[N+](=O)[O-])c1
 : -1 | -13% | . | 21% | 0%[15.4 µM] | 3 | 7.4

The list itself, from the start:
The line under a structure holds: TRPML1 inh | Sfp PPTase inh | ClpP mod | gsp antag | gsp ag | TRPV1 potentiator | Menin-MLL FL inh
1	CCCS(=O)(=O)N1CCN(C(=O)c2ccc(-c3ccccc3)cc2)CC1
 : 5 | 8% | -0.8% | -17% | -1% | -22 | 3.4
2	O=C(O)c1cccc(-n2cccc2/C=C\[N+](=O)[O-])c1
 : -1 | -13% | . | 21% | 0%[15.4 µM] | 3 | 7.4
3	O=C(O)CSc1sc(=S)sc1SCC(=O)O
 : -1 | 79µM* | 0.2% | 10% | -16% | 11 | -0.9
4	CSc1ccc(S(=O)(=O)NCC(=O)OC2CCOC2=O)cc1[N+](=O)[O-] (stereo not drawn)
 : -2 | . | . | -12% | 26%[15.4 µM] | 8 | .
5	COc1cc(C(=O)Nc2nnc(CC(=O)N3CCOCC3)s2)cc(OC)c1OC
 : 1 | 8% | -4.3% | 0% | -10% | 12 | 5.3
6	CCCc1cc(=O)oc2c(CN(CC)CC)c(O)c(Cl)cc12
 : 11 | 0% | . | -4% | ? | 20 | 3.9
7	CN1CCN(C(=S)Nc2cccc(Cl)c2)CC1
 : 6 | -3% | -0.3% | 2% | -30%[inhibitor] | -2 | 2.2
8	CCOc1ccccc1NC(=O)CSCC(=O)Nc1ccccc1
 : -2 | -13% | -1.1% | -4% | 4% | 7 | -0.2
9	CCN(CC)CCOc1ccc2c(c1)C(=NNC(=O)c1ccccn1)c1cc(OCCN(CC)CC)ccc1-2
 : -1 | -3% | 1.6% | ? | ? | 3 | -18
10	O=C(Nc1ccccc1)NC1(C(=O)NCc2ccc3c(c2)OCO3)CCCCC1
 : 7 | 13% | 1.3% | 4% | 2% | 19 | 5.1
11	Cn1c(N)c(C(=O)CSc2nnc(-c3c[nH]c4ccccc34)n2C2CC2)c(=O)[nH]c1=O
 : 10 | . | 1.3% | 8% | -91%[inhibitor] | -1 | .
12	CCCCNC(=O)CCn1c(=O)c2ccccc2n(CC(=O)NCCc2ccc(OC)c(OC)c2)c1=O
 : -5 | 22% | -3.9% | -2% | -3% | 14 | -2.3
13	O=C1CCC[C@@H]2Cc3nc4cc5c(cc4cc3[C@@H]3CCN1[C@H]23)OCO5
 : 0 | . | 3.9%&4.6% | 0% | . | . | .
14	Cc1cc(NC(=O)c2cnn3c(C(F)F)cc(C4CC4)nc23)no1
 : 38 | 2% | -24% | 4%[15.4 µM] | -2% | -4 | 7.9
15	CC(C)c1ccc(OCC(=O)N2CCCCCC2)c(Br)c1
 : -4 | 13% | . | -6% | 22% | -9 | -0.2
16	Cc1ccc(C)c(N2CCN(C(=O)CCCn3c(=O)c4cccn4c4cccnc43)CC2)c1
 : 1 | 15% | -18% | ? | ? | -15 | -4.3
17	CCCCc1c(C)nc2c(OC)cccc2c1SCCC(=O)O
 : -5 | -27% | 32µM* | -3% | -18% | 2 | 10.0
18	CN(C)CCCNc1nc2sc3c(c2c(=O)n1CCc1ccccc1)CCCCC3
 : 16 | -21% | -3.2% | 5% | 16%[15.4 µM] | 24 | -2.5
19	CC12CCC(C(=O)N(CC(O)CN3CCN(Cc4ccccc4)CC3)C1=O)C2(C)C (stereo not drawn)
 : 8 | -9% | . | 11% | 24% | -3 | -2.7
20	COc1ccc([C@H]2/C=C\CN(C(=O)c3ccc(C)cc3)[C@@H](C)C(=O)N2Cc2ccc(F)cc2)cc1
 : 61 | . | 2.0% | ? | -41%[inhibitor] | . | .

(listing goes on)
The line under a structure holds: TRPML1 inh | Sfp PPTase inh | ClpP mod | gsp antag | gsp ag | TRPV1 potentiator | Menin-MLL FL inh
21	COc1ccc(/C=N/NC(=O)CCOc2ccccc2C)cc1OC
 : -3 | -6% | 1.5% | 9% | -1% | 30 | -1.5
22	COc1cc(NC(=O)Nc2cccc3cccnc23)cc(OC)c1OC
 : 2 | -6% | -0.3% | -14% | -2% | 6 | -3.6
23	CCOc1ccccc1-n1c(CNc2ccc(F)cc2)nnc1SCC(=O)NCc1ccco1
 : 21 | -9% | -2.0% | ? | -10% | -8 | 0.1
24	COc1cc(-c2nnc(-c3ccncc3)o2)ccc1OCc1ccccc1
 : 12 | -7% | 94% | 3% | 3% | 3 | 3.4
25	Cc1ccc(C)c(Oc2coc3cc(OCC(=O)Nc4ccccc4C(C)C)ccc3c2=O)c1
 : . | 18% | . | . | . | 2 | 7.6
26	Cc1nc(Cc2nnc(SCC(=O)Nc3c(C)cccc3C)o2)cs1
 : 1 | . | -2.9% | 5% | ? | -2 | .
27	Cc1ccc(NC(=O)c2ccc(CSc3nnc(C)s3)cc2)cc1
 : 2 | 3% | -6.2% | 3% | -51%[inhibitor] | 15 | 3.0
28	CCOC(=O)[C@H]1[C@H]2COc3ccc(C)cc3[C@@H]2N2C(=O)c3ccc(C)cc3NC(=O)[C@@]12C
 : -5 | . | -3.0% | -12% | . | -28 | .
29	Cc1cccc(CNC(=O)C2CCC(=O)N(C3CCCCCC3)C2)c1 (stereo not drawn)
 : -2 | 1% | -0.1% | -3% | 11% | -12 | .
30	COc1ccccc1C(=O)NC(=S)Nc1ccc(NC(=O)c2ccco2)cc1
 : 4 | -19% | . | -7% | -20% | 11 | -2.7
31	C=CCN1C(=O)C(CC(=O)O)SC1=Nc1ccc(N=Nc2ccccc2)cc1 (stereo not drawn)
 : 14 | -8% | -3.8% | -29% | 12% | 7 | -2.7
32	COC(=O)/C(N=Nc1c(C)n(C)n(-c2ccccc2)c1=O)=C(\C)O
 : -9 | -23% | -1.5% | 1% | -9% | 5 | -4.6
33	N#Cc1ccccc1NC(=S)Nc1ccc(F)cc1
 : -6 | 4% | . | 0% | -24%[15.4 µM] | -9 | -1.0
34	NS(=O)(=O)c1ccc(NC(=O)COC(=O)c2cn(-c3ccccc3)nc2-c2ccc(F)cc2)cc1
 : 15 | -13% | -16% | 10% | -1% | -12 | 2.6
35	O=C(NCC1CCCO1)c1cccc(NS(=O)(=O)c2ccccc2)c1 (stereo not drawn)
 : 4 | . | 1.4% | 11% | 0% | -1 | .
36	COCCNC(=O)c1ccccc1NC(=O)CN(c1ccc2c(c1)OCO2)S(C)(=O)=O
 : -7 | 19% | -3.2% | -7% | 2% | -1 | -0.2
37	S=c1[nH]cc(Oc2ccc(Cl)cc2Cl)c(=S)[nH]1
 : -8 | . | . | -4% | 20µM* | . | .
38	O=C(NCCN1CCOCC1)c1ccccc1-c1ccccc1
 : -7 | -3% | -2.7% | 4% | -25% | 1 | 3.1
39	CC(C)(O)[C@@H]1CC(=O)[C@]2(C)[C@H](CC[C@@]3(C)[C@H](c4ccoc4)OC(=O)[C@H]4O[C@]432)[C@@]1(C)/C=C\C(=O)O
 : 27 | . | -1.6% | 4% | . | 25 | .
40	Cc1cc(C)cc(C(=O)NC(=S)Nc2ccc(-c3cc4ccccc4oc3=O)cc2)c1
 : -6 | -22% | 33% | 4% | 4% | 12 | -0.3

41: CCOc1ccc2nc(-c3ccccc3)[nH]c2c1
42: COc1cccc(C(=O)NC(=S)Nc2ccc3c4c(cccc24)CC3)c1
43: CCc1sc(NS(C)(=O)=O)nc1-c1ccccc1
44: COC(=O)c1c[nH]n2c(=O)cc(C)nc12
45: Cc1ccc(CN2C(=O)CCC2C(=O)NCCN2CCOCC2)cc1 (stereo not drawn)
46: CCN(CC)C(=O)CC(c1cc(OC)c(OC)c(OC)c1)c1c(OC)cc(OC)c2c(-c3ccccc3)cc(=O)oc12 (stereo not drawn)
47: Cc1nc2ccccn2c1-c1ccnc(=S)[nH]1
48: Cc1ccccc1C(=O)NC(=S)Nc1ccc(N2CCOCC2)cc1
49: CCn1c(/C=C/c2ccc(O)cc2)nc2ccccc2c1=O
screen / no. | 41 | 42 | 43 | 44 | 45 | 46 | 47 | 48 | 49
TRPML1 inh | 22 | -14 | -7 | -5 | 21 | -17&21 | 14 | 1 | -17
Sfp PPTase inh | -5% | -12% | 16% | -13% | 15% | -7%&-22% | 10µM* | -13% | -6%
ClpP mod | 7.1µM* | 1.2% | 0.6% | -16% | 1.1% | -3.7% | . | 0.9% | -1.9%
gsp antag | -20% | -8% | -2% | 4% | 6% | 6% | 13% | 0% | -20%
gsp ag | -3% | -3% | 27% | 6% | -67%[inhibitor] | . | -6%[15.4 µM] | -54%[inhibitor] | 7%[15.4 µM]
TRPV1 potentiator | -15 | 3 | 5 | -14 | -10 | -22 | -3 | -4 | 5
Menin-MLL FL inh | 2.7 | 0.2 | 1.8 | 2.5 | -0.1 | 0.3&4.0 | 1.7 | -2.1 | ?

Profiles, quoted from the list. Values in the order: TRPML1 inh, Sfp PPTase inh, ClpP mod, gsp antag, gsp ag, TRPV1 potentiator, Menin-MLL FL inh
Results for CCN(CC)C(=O)CC(c1cc(OC)c(OC)c(OC)c1)c1c(OC)cc(OC)c2c(-c3ccccc3)cc(=O)oc12 (stereo not drawn) → -17&21, -7%&-22%, -3.7%, 6%, ., -22, 0.3&4.0
Results for Cc1ccccc1C(=O)NC(=S)Nc1ccc(N2CCOCC2)cc1 → 1, -13%, 0.9%, 0%, -54%[inhibitor], -4, -2.1
Results for CCc1sc(NS(C)(=O)=O)nc1-c1ccccc1 → -7, 16%, 0.6%, -2%, 27%, 5, 1.8
Results for COC(=O)c1c[nH]n2c(=O)cc(C)nc12 → -5, -13%, -16%, 4%, 6%, -14, 2.5
Results for COc1cccc(C(=O)NC(=S)Nc2ccc3c4c(cccc24)CC3)c1 → -14, -12%, 1.2%, -8%, -3%, 3, 0.2
